# High-throughput results deposited in PubChem by National Center for Advancing Translational Sciences (NCATS).
# Luciferase inh – Firefly luciferase inhibition profiling of diverse chemical library using quantitative high-throughput screening | Potency, µM (doses to about 115 µM), without a hit: top-dose activity change, negative = inhibition, actives largely listed as inhibitors | purified P. pyralis luciferase, luminescence, biochemical | 76,000 compounds, 2.5% hits | Luciferin 4-monooxygenase (Photinus pyralis), P08659 | AID 1347043, 2019; further: potency means the concentration at half of the fitted maximal effect; nearly all actives have a fitted effect of over 65% in size
# Target sequence (P08659 whole entry, looked up): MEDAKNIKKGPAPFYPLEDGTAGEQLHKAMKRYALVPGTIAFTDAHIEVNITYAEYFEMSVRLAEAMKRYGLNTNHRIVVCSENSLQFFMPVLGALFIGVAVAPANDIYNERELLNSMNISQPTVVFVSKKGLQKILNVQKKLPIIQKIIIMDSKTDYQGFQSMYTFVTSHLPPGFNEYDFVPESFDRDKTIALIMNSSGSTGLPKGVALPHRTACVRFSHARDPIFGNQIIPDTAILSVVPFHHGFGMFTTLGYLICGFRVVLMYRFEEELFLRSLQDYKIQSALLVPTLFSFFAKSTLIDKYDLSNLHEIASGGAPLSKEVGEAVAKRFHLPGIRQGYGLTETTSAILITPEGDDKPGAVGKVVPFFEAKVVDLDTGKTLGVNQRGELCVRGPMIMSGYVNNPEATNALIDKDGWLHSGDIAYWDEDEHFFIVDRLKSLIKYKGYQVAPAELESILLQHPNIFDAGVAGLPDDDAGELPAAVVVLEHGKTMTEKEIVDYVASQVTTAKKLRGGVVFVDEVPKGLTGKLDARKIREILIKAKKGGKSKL
#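 Luminescence read by CCD imaging after purified firefly luciferase (10nM final) was added to substrate buffer holding 10uM D-luciferin and 10uM ATP, pH 7.5, pre-dosed with compound.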
# SNCA viab count – GF-AFC viability counterscreen for inhibitors of alpha-synuclein gene (SNCA) expression; HEK-293-SNCA-luc viability, GF-AFC fluorescence, 24 h; Potency, µM (doses to about 57.1 µM), for inactives: at the top dose activity change, negative = cytotoxicity, actives largely listed as cytotoxic; 150,000 compounds, 0.12% hits;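 further: potency means the concentration at half of the fitted maximal effect; 0% = DMSO-treated cells and -100% = medium-only wells without cells; nearly all actives have a fitted effect of over 30% in size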
#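 Cytotoxicity counterscreen: after 24 h compound treatment of genome-edited SNCA-luciferase HEK-293 cells, live-cell protease substrate GF-AFC read by fluorescence after 30 min; activity scaled between DMSO (0%) and medium-only (-100%), curves Hill-fitted.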
# SNCA expr inhib – Primary qHTS assay for inhibitors of alpha-synuclein gene (SNCA) expression | Potency, µM (titrated, usually from 57.2 µM), without a hit: at the highest dose activity change, negative = inhibition, usual class: inhibitors | HEK-293 SNCA-luciferase knock-in, luminescence, 24 h | 140,000 compounds, 0.17% hits;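 further: potency means the concentration at half of the fitted maximal effect; plate controls were DMSO cells for no effect and cell-free wells for full effect; nearly all actives have a fitted effect of over 45% in size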
# IP6K1 inh – Primary qHTS assay for small molecule inhibitors of Inositol hexaphosphate kinase 1 (IP6K1) | Inositol hexakisphosphate kinase 1 (Homo sapiens), Q92551 | IP6K1 kinase, ADP-Glo luminescence, 2 h; active compounds read low | activity change, % (series mostly up to about 58 µM) | 140,000 compounds, 0.81% hits | AID 1645851, 2021; in the data active means activity change below about -25%
# Target sequence (Q92551 whole entry, looked up): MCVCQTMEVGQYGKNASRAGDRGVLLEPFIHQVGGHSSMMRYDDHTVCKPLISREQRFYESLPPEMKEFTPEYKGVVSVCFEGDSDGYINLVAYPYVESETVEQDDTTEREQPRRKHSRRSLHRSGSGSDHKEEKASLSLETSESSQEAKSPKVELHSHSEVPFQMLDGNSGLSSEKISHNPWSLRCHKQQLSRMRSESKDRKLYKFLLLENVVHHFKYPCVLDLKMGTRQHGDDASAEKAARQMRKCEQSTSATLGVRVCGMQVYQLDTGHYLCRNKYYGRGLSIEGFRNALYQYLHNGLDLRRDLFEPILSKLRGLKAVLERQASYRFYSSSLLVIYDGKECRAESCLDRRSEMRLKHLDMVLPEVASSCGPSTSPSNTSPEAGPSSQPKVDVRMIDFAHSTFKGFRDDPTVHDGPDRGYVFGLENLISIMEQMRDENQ
#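 ADP-Glo luminescence measures ADP made by human IP6K1 during a 2 h RT reaction with ATP/IP6 (mix at 1.3 mM/130 uM); top library doses 57.5 and 19.1 uM final.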
# HEK cytotox – Cytotoxic Profiling in HEK 293 Cell Line of Diverse Libraries Using Quantitative High-Throughput Screening | HEK 293 viability, ATP luminescence (CellTiter-Glo), 48-72 h | Potency, µM (series often up to 115 µM), for the others: top-dose activity change, negative = cytotoxicity, actives largely listed as inhibitors | 94,000 compounds, 6.6% hits; further: potency means the concentration at half of the fitted maximal effect; nearly all actives have a fitted effect of over 60% in size
#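 Pintool-delivered compounds were incubated with HEK 293 cells (250 cells/well) at 37 degree Celsius for 48 or 72 hr. ATP-dependent luminescence (CellTiter-Glo) then reported remaining viable cells.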
# NIH3T3 tox – Cytotoxic Profiling in NIH 3T3 Cell Line of Diverse Libraries Using Quantitative High-Throughput Screening; NIH 3T3 viability, CellTiter-Glo ATP luminescence, 48-72 h; Potency, µM (doses to about 96.7 µM), for inactives: at the highest dose activity change, negative = cytotoxicity, most hits filed as inhibitors; 94,000 compounds, 4.3% hits; further: potency means the concentration at half of the fitted maximal effect; nearly all actives have a fitted effect of over 55% in size
#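 Cytotoxicity was measured by CellTiter-Glo ATP luminescence after 48 or 72 h compound exposure at 37 °C. Mouse NIH 3T3 fibroblasts were seeded at 400 cells/well and dosed by 23 nL pin transfer.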
# * hit, by the source's call; i = inactive; ? = inconclusive; . = not tested or not shown; [ ] = another dose, or the depositor's remark. Unless noted, the call rests on the fitted dose curve; in most records, active means well fitted curve in the direction sought with a large enough effect; inconclusive means small, poorly fitted or top-dose-only effect, or another doubt; inactive means no such curve, though single readings can be large; an effect the other way counts as inactive or inconclusive. Unless noted, on the % scale 0 is the no-effect control and ±100 the full control effect. This is a subset. The share of hits here may be higher or lower than overall.
nr	smiles	Luciferase inh	SNCA viab count	SNCA expr inhib	IP6K1 inh	HEK cytotox	NIH3T3 tox
1	O=C(NC1CCN(c2cc(-c3cccs3)[nH]n2)C1)c1cccs1 (configuration not stated)	-2%	1%	-22%	8	?	?
2	Cc1ccc(CN2CCC3(CC2)CCN(C2CCOCC2)CC3CO)s1 (configuration not stated)	4%	1%	23%	3	-29%	-26%
3	CCOCCn1nc(C)cc1C(=O)N1CC(C)(C)[C@@](C)(O)C1	4%	-7%	-14%	-3	i	-1%
4	COc1cc(Cl)ccc1C(=O)N1CC[C@@](C)(O)[C@@H](O)C1	2%	?	-22%	29	-3%	-3%
5	CS(=O)(=O)N1CCCC1C(=O)Nc1ccc(-c2cccc(F)c2)cc1 (configuration not stated)	?	?	66%[activator]	3	?	-16%
6	CCN(Cc1cnn(CC)c1)C(=O)c1ccc2c(c1)C(O)CCCCCN2C (configuration not stated)	-8%	-8%	10%	8	?	?
7	O=C(CCC1CCCN(S(=O)(=O)c2ccccc2)C1)NC1CCS(=O)(=O)C1 (configuration not stated)	-3%	-8%	-12%	13	-13%	i
8	Cc1cccc(OCCc2noc(C3CCN(C(=O)C4CCCC4)C3)n2)c1 (configuration not stated)	-10%	15%[12.5 µM]	-35%	12	?	?
9	FC1(F)CN[C@H](c2nc(-c3ncccn3)no2)C1	-20%	2%	-2%	1	i	-5%
10	CN1CC(=O)N(C2CCC2)Cc2c(NCCO)ncnc21	-4%[172 µM]	-1%[87.6 µM]	39%[activator][87.6 µM]	-2	i	-6%[138 µM]
11	Cc1ncc2c(c1CNC(=O)c1ccccc1F)CCN(C(=O)Cc1ccc3c(c1)OCO3)C2	-3%	-3%	17%	12	-4%	0%
12	O=C(Cc1ccccc1Cl)N1CCC2(CC1)NC(=O)N(c1ccc(F)cc1)N2	2%	1%	?	3	?	?
13	COC[C@H]1CCCN1C(=O)CC[C@H]1CNC(=O)[C@@H]2[C@@H](CCN2Cc2ccccc2)N1C	3%[172 µM]	3%[87.6 µM]	-1%[87.6 µM]	-10	-8%[172 µM]	-18%[138 µM]
14	O=C(Cc1ccccc1Cl)NC1CCN(c2cc(-c3ccccc3)[nH]n2)C1 (configuration not stated)	-4%	?	?	0	?	?
15	CCCNC(=O)N1CCC(c2nc(CCOc3cccc(C)c3)no2)C1 (configuration not stated)	-11%	4%[12.5 µM]	0%	5	?	?
16	CN1CC(=O)N(C2CCNC2)Cc2c(NCC(C)(C)C)ncnc21 (configuration not stated)	.	7%	13%	-3	4%	i
17	O=C(NC1CCCCC1)[C@@H]1C[C@@H](O)CN1C1CCN(C(=O)c2n[nH]c(=O)c3ccccc23)CC1	5%	5%	?	24	i	1%
18	NS(=O)(=O)c1ccc(-n2nc(-c3ccncc3)nc2C2CCOC2)cc1 (configuration not stated)	7%	-2%	-17%	6	-7%	?
19	CCOCCn1nc(C)cc1C(=O)N1CCC2(CC(=O)NC2=O)C1 (configuration not stated)	13%	7%	10%	5	1%	0%
20	Cc1ccccc1C(=O)N1CCC2(CC1)OCC(C(=O)N1CCOCC1)N2C(=O)c1cccc(F)c1 (configuration not stated)	1%	3%	-4%	-10	2%	i
21	CN1CCC(N2C[C@H](O)C[C@H]2c2nc(Cc3ccccc3)no2)CC1	-2%[172 µM]	1%[87.6 µM]	-2%[87.6 µM]	16	-2%[172 µM]	i
22	COCC(=O)N1CCC2(CC1)CN(c1ccccc1)C2=O	7%	8%	-17%	2	-1%	-3%
23	COc1ccc(-c2nc3cc(C(=O)NCCc4ccccc4)ccc3o2)cn1	.	-1%	41%[activator]	14	?	-12%
24	COc1ccc(-c2cc(N3CCC(NC(=O)c4cccc(F)c4)CC3)n[nH]2)cc1	-3%	-13%	-4%	10	?	?
25	O=C(NCCc1ccncc1)C1Cn2cccc2C(=O)N1Cc1ccccc1 (configuration not stated)	8%	-14%	-17%	0	i	-3%
26	O=C(NC1CCCCC1)[C@@H]1C[C@@H](O)CN1C1CCN(C(=O)C2CC2)CC1	1%	-10%	11%	25	-15%	-7%
27	Cc1cccc(C(=O)NCC2Cn3cccc3C(=O)N2Cc2ccccc2)c1 (configuration not stated)	-2%	-2%	2%	13	?	?
28	Cc1ccccc1CC(=O)N1CCC2(CC1)NC(=O)N(c1ccc(F)cc1)N2	-22%	-16%	51%[activator]	-4	?	?
29	Cc1noc(C)c1C(=O)N1CCN(C2CCNCC2)C(=O)C1	.	3%	4%	18	-4%	-9%
30	CCOc1ccc(CN(CCOC)C(=O)C2CC3(CCNCC3)CN2)cc1 (configuration not stated)	2%	12%	5%	14	-11%	-14%
31	Cn1cccc1C(=O)N1CCC(N2C[C@H](O)C[C@H]2C(=O)NC2CCCCC2)CC1	4%	1%	3%	6	-12%	-9%
32	Cc1cc(-n2cccn2)ccc1CN(C)CC(C)N1CCOCC1 (configuration not stated)	15%	-2%	-2%	3	-1%	-10%
33	O=C1CCCCC(Cc2ccccc2)(C(=O)N2CCN(c3ccccn3)CC2)N1 (configuration not stated)	.	-6%	10%	-15	?	-30%
34	COCCNC(=O)C1Cn2cccc2C(=O)N1Cc1ccccc1 (configuration not stated)	-3%	7%	-7%	1	-17%	-22%
35	CCCN(CC1CC1)C(=O)CCC1CCN(S(=O)(=O)c2ccccc2)CC1	-5%	?	?	13	?	?
36	Cc1cc(C(F)(F)F)nn1CC(=O)NCCc1ncc(C)n1CC1CC1	6%	3%	12%	11	3%	-8%

# Structural class: the entries above containing two or more sulfur atoms.
nr	smiles	Luciferase inh	SNCA viab count	SNCA expr inhib	IP6K1 inh	HEK cytotox	NIH3T3 tox
1	O=C(NC1CCN(c2cc(-c3cccs3)[nH]n2)C1)c1cccs1 (configuration not stated)	-2%	1%	-22%	8	?	?
7	O=C(CCC1CCCN(S(=O)(=O)c2ccccc2)C1)NC1CCS(=O)(=O)C1 (configuration not stated)	-3%	-8%	-12%	13	-13%	i

# An excerpt from above in order of count of non-hydrogen atoms, ascending:
nr	smiles	Luciferase inh	SNCA viab count	SNCA expr inhib	IP6K1 inh	HEK cytotox	NIH3T3 tox
29	Cc1noc(C)c1C(=O)N1CCN(C2CCNCC2)C(=O)C1	.	3%	4%	18	-4%	-9%
32	Cc1cc(-n2cccn2)ccc1CN(C)CC(C)N1CCOCC1 (configuration not stated)	15%	-2%	-2%	3	-1%	-10%
36	Cc1cc(C(F)(F)F)nn1CC(=O)NCCc1ncc(C)n1CC1CC1	6%	3%	12%	11	3%	-8%
30	CCOc1ccc(CN(CCOC)C(=O)C2CC3(CCNCC3)CN2)cc1 (configuration not stated)	2%	12%	5%	14	-11%	-14%
25	O=C(NCCc1ccncc1)C1Cn2cccc2C(=O)N1Cc1ccccc1 (configuration not stated)	8%	-14%	-17%	0	i	-3%
31	Cn1cccc1C(=O)N1CCC(N2C[C@H](O)C[C@H]2C(=O)NC2CCCCC2)CC1	4%	1%	3%	6	-12%	-9%

# Going on with the list:
nr	smiles	Luciferase inh	SNCA viab count	SNCA expr inhib	IP6K1 inh	HEK cytotox	NIH3T3 tox
37	COc1ccccc1OCc1nc2c(n1Cc1ccccc1)C(=O)N(CC1CC1)CCN2	1%[172 µM]	-2%[87.6 µM]	5%[87.6 µM]	-10	?	?
38	CCNC(=O)[C@@H]1C[C@H](N)CN1C(=O)[C@@H](C)c1ccc2cc(OC)ccc2c1	-7%	-6%	-3%	-4	-3%	-1%
39	CC(C)[C@@H]1CN(C(=O)c2ccc(=O)n(C)n2)C[C@H]1NS(=O)(=O)N(C)C	10%	1%	-21%	9	i	i
40	CCc1nc(-c2c3n(c(=O)n(Cc4cc(F)ccc4F)c2=O)CCCC3)no1	0%	-13%	-18%	9	-27%	?
41	CN1C(=O)N(Cc2cccnc2)C(=O)C12CCN(Cc1cc3ccccc3o1)CC2	7%	2%	18%	4	?	-16%
42	Cc1ccc(CN2CCC3(CC2)CCN(Cc2cccnc2)CC3CO)s1 (configuration not stated)	0%	-10%	-3%	14	?	-5%
43	Cc1noc(-c2nc(-c3cccc(F)c3)no2)n1	?	2%	57%[activator]	6	?	-6%
44	CC(=O)O[C@@H]1C(=O)O[C@@H]2[C@H]1OC(=O)[C@@H]2OC(C)=O	.	-6%	-20%[25.6 µM]	-12	.	.
45	CC(=O)N1CCC(N2C[C@H](O)C[C@H]2c2nc(-c3ccccn3)no2)CC1	3%[172 µM]	-2%[87.6 µM]	-14%[87.6 µM]	-14	-4%[172 µM]	-4%[138 µM]
46	COc1ccc(-c2nc3cnccn3c2NCCC(=O)N2CCCC(C)C2)cc1 (configuration not stated)	-25%	?	21%	-3	6%	i
47	CCCn1nc(C)cc1CN(C)C(=O)c1ccc2c(c1)C(O)CCCCCN2C (configuration not stated)	-22%	-5%	-21%	-13	?	?
48	CN(CC(=O)N[C@H]1[C@H]2CCO[C@H]2[C@@H]1N(C)C)Cc1ccc(F)cc1	-5%	0%	11%	23	-1%	4%
49	COCc1nc(CCNC(=O)CCCc2cn(Cc3ccccc3Cl)c3ccccc23)no1	-8%	-6%[12.5 µM]	4%	3	?	?
50	CCCc1nn(-c2ccccc2C)c(OC(C)=O)c1-c1ccc(NC(C)=O)cc1	-5%	9%	-24%	19	1%	0%
51	CCS(=O)(=O)c1ncc(CN(C)CCOc2ccc(C)cc2)n1Cc1ccccc1	2%	1%	-6%	18	?	?
52	O=C(NC1CC1)c1ccc2cncn2c1	-28%[230 µM]	-1%[87.6 µM]	8%[87.6 µM]	-1	-6%[230 µM]	-7%[174 µM]
53	C=CCNC(=O)N[C@H]1CO[C@H]2[C@@H]1OC[C@@H]2Nc1nccc(-c2ccccc2OC)n1	0%[172 µM]	6%[87.6 µM]	-3%[87.6 µM]	-3	-21%[172 µM]	-22%[174 µM]
54	O=C(NC1CCCN(c2cc(-c3ccccc3)[nH]n2)C1)c1ccccc1C(F)(F)F (configuration not stated)	-13%	-30%	12%	1	?	?
55	CNC(=O)N1CCC(C2CCN(C(=O)CC3CCCCC3)C2)CC1 (configuration not stated)	-17%	6%[12.5 µM]	40%[activator]	-3	i	-5%
56	CC(=O)N1CCCN(c2ncc(S(C)(=O)=O)c(C3CCCNC3)n2)CC1 (configuration not stated)	12%	6%	8%	5	-10%	-1%
57	COCCC(=O)N1CCC(N2C[C@H](O)C[C@H]2C(=O)NC2CCCCC2)CC1	0%	8%	-11%	31	-1%	-11%
58	O=C(NC1CC1)c1ccc2ccnn2c1	?	12%[87.6 µM]	59%[activator][87.6 µM]	1	i	i

# 2 entries from above, with each value named.
52) O=C(NC1CC1)c1ccc2cncn2c1
  Luciferase inh: -28%[230 µM]
  SNCA viab count: -1%[87.6 µM]
  SNCA expr inhib: 8%[87.6 µM]
  IP6K1 inh: -1
  HEK cytotox: -6%[230 µM]
  NIH3T3 tox: -7%[174 µM]
53) C=CCNC(=O)N[C@H]1CO[C@H]2[C@@H]1OC[C@@H]2Nc1nccc(-c2ccccc2OC)n1
  Luciferase inh: 0%[172 µM]
  SNCA viab count: 6%[87.6 µM]
  SNCA expr inhib: -3%[87.6 µM]
  IP6K1 inh: -3
  HEK cytotox: -21%[172 µM]
  NIH3T3 tox: -22%[174 µM]
